High-throughput results from PubChem BioAssay.
AF4-AF9 inh: MLL-AF4/AF9 protein interaction inhibition; AlphaScreen, biotin-AF4 peptide binding to FLAG-AF9; inhibition, % at 10 µM; 350,000 compounds, 0.47% hits;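 active = every replicate reaching a set inhibition limit, whatever the replicate mean, cut at about 25% in these data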;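 also: 0% = plate neutral control median and 100% = total signal loss; the record names both 10 and 1 µM as test concentration; the first replicate is given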
Target sequence (P42568 whole entry, looked up): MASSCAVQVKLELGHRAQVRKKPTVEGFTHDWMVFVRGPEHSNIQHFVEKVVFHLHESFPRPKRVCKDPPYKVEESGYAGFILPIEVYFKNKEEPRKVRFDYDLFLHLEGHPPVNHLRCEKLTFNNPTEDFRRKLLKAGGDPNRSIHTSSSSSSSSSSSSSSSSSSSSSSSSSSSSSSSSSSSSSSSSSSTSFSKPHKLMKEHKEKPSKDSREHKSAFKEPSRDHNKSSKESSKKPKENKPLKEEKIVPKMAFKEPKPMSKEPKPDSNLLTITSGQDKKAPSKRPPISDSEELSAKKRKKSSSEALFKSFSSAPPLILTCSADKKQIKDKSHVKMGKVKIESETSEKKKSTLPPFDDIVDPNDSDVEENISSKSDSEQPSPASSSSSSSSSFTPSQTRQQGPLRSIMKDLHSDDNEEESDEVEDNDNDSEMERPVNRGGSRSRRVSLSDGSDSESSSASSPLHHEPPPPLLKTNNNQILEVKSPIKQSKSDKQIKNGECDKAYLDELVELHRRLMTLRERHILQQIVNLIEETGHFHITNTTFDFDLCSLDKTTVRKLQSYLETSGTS
* = called active by the depositor; & = joins results of further samples. Only part of the results is shown (hit frequency here may not be typical).

SMILES	AF4-AF9 inh
Cn1cnc(S(=O)(=O)N[C@@H]2C=C[C@@H](CC(=O)NCC3CCCCC3)O[C@H]2CO)c1	-0.2
CO[C@@H]1CN(C)C(=O)c2cc(NS(C)(=O)=O)ccc2OC[C@@H](C)N(CC2CC2)C[C@H]1C	-0.6
Cc1ccc(S(=O)(=O)NCC[C@@H]2CC[C@H](NC(=O)Nc3cccc(F)c3)[C@@H](CO)O2)cc1	0.7
CN1CCN(C(=O)C[C@H]2C=C[C@H](NS(=O)(=O)c3cccc(F)c3)[C@H](CO)O2)CC1	-3.6
O=C(Nc1cccc(F)c1)N1CCCCN2[C@H](CO)[C@@H](c3ccc(C#Cc4ccccc4)cc3)[C@H]2C1	5.0
C[C@H](CO)N1C[C@H](C)[C@H](CN(C)C(=O)NC2CCCCC2)OCCCC[C@H](C)Oc2ccc(NS(=O)(=O)c3cccs3)cc2C1=O	0.2
Cc1cccc(S(=O)(=O)N2CCCCN3[C@H](C2)[C@H](c2ccc(-c4ccncc4)cc2)[C@@H]3CO)c1	-5.1
COc1ccc(CNC(=O)C[C@@H]2C[C@H]3c4cc(NC(=O)C5CCC5)ccc4O[C@H]3[C@H](CO)O2)cc1	-15
C[C@@H]1CN([C@@H](C)CO)S(=O)(=O)c2ccc(-c3cccnc3)cc2O[C@H]1CN(C)C(=O)CC1CC1	0.9
CCCNC(=O)C[C@@H]1C[C@H]2c3cc(NC(=O)CC4CC4)ccc3O[C@H]2[C@H](CO)O1	8.0
O=C(NC1Cc2ccccc2C1)[C@@H]1[C@@H](CO)[C@@H]2Cn3c(ccc(C4=CCCCC4)c3=O)[C@H]1N2CC1CC1	4.3
C[C@@H]1CN([C@H](C)CO)C(=O)c2cccc(NC(=O)C3CCOCC3)c2O[C@@H]1CN(C)C(=O)Nc1cccc2ccccc12	0.1
C[C@@H]1CN([C@H](C)CO)C(=O)Cc2cc(NC(=O)Nc3ccc(F)cc3)ccc2O[C@H]1CN(C)Cc1ccccc1	1.3
COc1ccc(NC(=O)Nc2ccc3c(c2)C(=O)N([C@H](C)CO)C[C@H](C)[C@@H](CN(C)S(=O)(=O)c2ccc(C)cc2)O3)cc1	2.1
C[C@H]1CN([C@@H](C)CO)C(=O)c2cc(NC(=O)Nc3ccc(C(F)(F)F)cc3)ccc2O[C@H]1CN(C)CC1CCCCC1	3.5
O=C(N[C@@H]1CC[C@@H](CCNC(=O)c2cnccn2)O[C@@H]1CO)c1ccc2c(c1)OCO2	0.0
CC(C)C1C(=O)N(Cc2cn(CCC3OCCCO3)nn2)CCS(=O)(=O)N1Cc1ccc(-c2cccc(N(C)C)c2)cc1 (stereo not given)	2.3
COCC(=O)N1CC[C@@H]2[C@@H](CO)Nc3ccc(-c4ccc(C(=O)N(C)C)cc4)cc3[C@@H]21	1.0
Cc1noc(C)c1NC(=O)Nc1ccc2c(c1)CC(=O)N([C@@H](C)CO)C[C@@H](C)[C@@H](CN(C)Cc1ccc(-c3ccccc3)cc1)O2	1.8
COc1ccc(CCC(=O)Nc2ccc(Cl)c(S(=O)(=O)N3CCOCC3)c2)cc1OC	-4.9
C[C@H]1CCCCO[C@@H](CN(C)Cc2ccncc2)[C@@H](C)CN([C@@H](C)CO)C(=O)c2cc(NS(=O)(=O)c3ccc(Cl)cc3)ccc2O1	2.2
CO[C@H]1CN(C)C(=O)c2cc(NS(=O)(=O)c3cccc(F)c3)ccc2OC[C@@H](C)NC[C@@H]1C	-11
CC1(C(=O)NS(=O)(=O)c2cccs2)CCN1C(=O)CC1CC1 (stereo not given)	-1.3
COc1ccc(-c2ccccc2[C@@H]2[C@@H](C#N)N(C(=O)C3CCCCC3)[C@H]2CO)cc1	-0.8
Cc1ccc(-c2cnc3c(c2)C(=O)N([C@@H](C)CO)C[C@H](C)[C@@H](CN(C)S(C)(=O)=O)O3)cc1	-0.5
Additional records.
SMILES	AF4-AF9 inh
Cn1c(=O)c2cc(NC(=S)NCc3ccccc3F)ccc2n1Cc1ccccc1	-2.3
CCCNC(=O)Nc1ccc2c(c1)C(=O)N(C)C[C@H](OC)[C@@H](C)CN(C(C)=O)[C@@H](C)CO2	-12
COc1ccc(NC(=O)N(C)C[C@@H]2Oc3ccc(NC(=O)NC(C)C)cc3C(=O)N([C@@H](C)CO)C[C@@H]2C)cc1	-2.7
O=C1c2ccccc2C(c2nnnn2-c2ccc3c(c2)OCCO3)N1Cc1ccccc1 (stereo not given)	0.1
COc1ccc(NC(=O)Nc2ccc3c(c2)C(=O)N([C@H](C)CO)C[C@@H](C)[C@@H](CN(C)S(=O)(=O)c2ccc(Cl)cc2)OCCCC[C@@H](C)O3)cc1	-1.7
c1csc(-c2ccc3nncn3c2)c1	0.4
CCCNC(=O)C[C@H]1C[C@@H]2c3cc(NC(=O)Nc4ccc(F)cc4)ccc3O[C@@H]2[C@@H](CO)O1	0.7
C[C@@H]1CN([C@@H](C)CO)C(=O)c2c(c3ccccc3n2C)-c2ccccc2CO[C@@H]1CN(C)Cc1cccc(O)c1	9.6
COc1ccc(C#Cc2ccc([C@H]3[C@H]4CN(C(=O)Nc5ccccc5F)CCCCN4[C@H]3CO)cc2)cc1	-6.1
CN1C(=O)c2cc(NC(=O)NCc3ccccc3)ccc2OC[C@@H]2O[C@H](CC(=O)O)CC[C@H]21	-0.2
CNC[C@@H]1Oc2c(NC(=O)c3nc4ccccc4s3)cccc2C(=O)N([C@@H](C)CO)C[C@@H]1C	2.2
C[C@H]1CN([C@@H](C)CO)C(=O)c2cc(C3=CCCCC3)cnc2O[C@H]1CN(C)C(=O)Nc1ccccc1	-1.4
C[C@@H]1CN([C@@H](C)CO)C(=O)Cc2cc(NC(=O)C3CCCCC3)ccc2O[C@@H]1CN(C)Cc1ccc2c(c1)OCO2	-1.7
C[C@H]1CN([C@@H](C)CO)C(=O)CCCn2cc(nn2)CO[C@H]1CN(C)Cc1ccc2c(c1)OCCN2C	-2.0
O=C(Nc1cccc(Cl)c1)N1C[C@@H]2[C@H](c3ccccc31)[C@@H](CO)N2Cc1ccccc1Cl	4.4
COC(=O)[C@]12CCCCC=C1N(CCC1=CCCCC1)C(=O)[C@H](CC(=O)N1CCCC1)C2	-1.7
CCC(=O)N1CC(=O)N2[C@H](CO)[C@H](c3ccc(-c4ccc(C#N)cc4)cc3)[C@H]2C1	-3.1
COc1ccc(NC(=O)N(C)C[C@@H]2Oc3ccc(NS(=O)(=O)c4cn(C)cn4)cc3CC(=O)N([C@H](C)CO)C[C@@H]2C)cc1	-3.0
CCCC(=O)Nc1ccc2c(c1)C(=O)N(C)C[C@H](OC)[C@@H](C)CN(Cc1ccccn1)[C@H](C)CO2	-0.4
COc1ccc(S(=O)(=O)N(C)C[C@@H]2OCCCC[C@H](C)Oc3ccc(NS(=O)(=O)c4ccc(F)cc4)cc3C(=O)N([C@H](C)CO)C[C@@H]2C)cc1	-1.5
Cc1noc(C)c1S(=O)(=O)Nc1cccc2c1O[C@@H](CN(C)Cc1ccc(C(F)(F)F)cc1)[C@@H](C)CN([C@H](C)CO)C2=O	-0.3
CO[C@@H]1CN(C)C(=O)c2cc(NC(=O)CC(F)(F)F)ccc2OC[C@@H](C)N(C(C)=O)C[C@@H]1C	0.2
Cc1ccc(S(=O)(=O)N[C@H]2CC[C@H](CCNC(=O)C3CCC3)O[C@H]2CO)cc1	-1.7
C[C@H](CO)N1C[C@H](C)[C@H](CN(C)C)Oc2ccc(NC(=O)CCN3CCOCC3)cc2C1=O	0.3
Cc1ccc(S(=O)(=O)Nc2ccc3c(c2)CC(=O)N([C@H](C)CO)C[C@@H](C)[C@@H](CN(C)Cc2ccc(-c4ccccc4)cc2)O3)cc1	-0.2
(next part)
SMILES	AF4-AF9 inh
O=C(Nc1ccc2c(c1)OCCO2)C(CCc1ccccc1)N1CCN(C/C=C/c2ccccc2)CC1 (stereo not given)	6.6
C[C@H](CO)N1C[C@H](C)[C@@H](CN(C)Cc2ccc(Cl)c(Cl)c2)Oc2ccc(NS(=O)(=O)c3ccc(Cl)cc3)cc2C1=O	-0.1
Cc1noc(C)c1S(=O)(=O)Nc1ccc2c(c1)CC(=O)N([C@H](C)CO)C[C@H](C)[C@@H](CN(C)Cc1ccc(C(=O)O)cc1)O2	-9.5
CO[C@H]1CN(C)C(=O)c2cc(NC(=O)NC3CCCCC3)ccc2OC[C@H](C)N(CCc2ccccc2)C[C@@H]1C	3.3
CNC[C@@H]1Oc2cc(C#CCOC)ccc2S(=O)(=O)N([C@@H](C)CO)C[C@H]1C	-0.4
CCCNC(=O)C[C@H]1C[C@H]2c3cc(NS(=O)(=O)c4cccc(OC)c4)ccc3O[C@H]2[C@H](CO)O1	-2.2
CO[C@@H]1CN(C)C(=O)c2ccc(NS(C)(=O)=O)cc2OC[C@@H](C)N(C(=O)C2CCOCC2)C[C@H]1C	-4.7
CCCCNC(=O)C1(C)CCN1C(=O)c1ccc(F)c(C)c1 (stereo not given)	1.0
COc1ccc(S(=O)(=O)N(C)C[C@@H]2Oc3cc(C#CC4CCCC4)ccc3S(=O)(=O)N([C@@H](C)CO)C[C@H]2C)cc1	-3.1
COC(=O)[C@]12CCCCC=C1N(Cc1ccccc1)C(=O)[C@H](CC(=O)N1CCC(c3ccccc3)CC1)C2	4.5
C[C@@H]1CN([C@@H](C)CO)C(=O)Cc2cc(N(C)C)ccc2O[C@H]1CN(C)C	-1.2
CCCNC(=O)c1cc(C2CCCN(S(=O)(=O)c3ccccc3)C2)on1 (stereo not given)	1.8
C[C@H]1CCCCO[C@H](CN(C)CC2CC2)[C@@H](C)CN([C@@H](C)CO)C(=O)c2cc(NS(C)(=O)=O)ccc2O1	-3.0
COc1ccccc1NC(=O)Nc1ccc2c(c1)C(=O)N(C)C[C@H](OC)[C@H](C)CN[C@@H](C)CO2	-0.2
Cc1noc(C)c1S(=O)(=O)Nc1ccc2c(c1)C(=O)N([C@H](C)CO)C[C@@H](C)[C@@H](CN(C)C(=O)C1CCCCC1)OCCCC[C@@H](C)O2	-0.2
O=C(C[C@@H]1CC[C@@H](NC(=O)c2ccccc2)[C@H](CO)O1)NCCc1ccncc1	-2.9
CCCC(=O)Nc1ccc2c(c1)C(=O)N(C)C[C@@H](OC)[C@H](C)CN(C(=O)Cc1cccnc1)[C@H](C)CO2	-1.3
CCCNC(=O)[C@H]1[C@H](CO)[C@H]2Cn3c(ccc(-c4cccc(OC)c4)c3=O)[C@@H]1N2CCC	-0.3
O=C1CN(S(=O)(=O)c2cccc(F)c2)C[C@H]2[C@@H](c3ccc(C4=CCCC4)cc3)[C@@H](CO)N12	1.1
CC(=O)N(C)C[C@H]1Oc2cc(-c3ccc(C)cc3)ccc2S(=O)(=O)N([C@H](C)CO)C[C@@H]1C	-1.0
COc1ccc(-c2ncn(CCc3ccccc3OC)c2C(C)C)cc1	24
C[C@@H]1CN([C@H](C)CO)S(=O)(=O)c2ccc(C#CC3CC3)cc2O[C@H]1CN(C)C(=O)Cc1ccncc1	2.7
COc1ccc2c3c(n(C)c2c1)[C@@H](CO)N(S(C)(=O)=O)CC31CCN(CC2CC2)CC1	-1.9
O=C(c1ccccn1)N1CC2(C1)[C@H](c1ccccc1)[C@@H](CO)N2C(=O)CC1CC1	-2.6
C[C@H]1CN([C@@H](C)CO)C(=O)c2cc(NC(=O)Cn3cnnn3)ccc2O[C@H]1CN(C)Cc1ccc(C(=O)Nc2ccccc2N)cc1	2.8

Quoted at random: four records from the list, in no set order.
SMILES	AF4-AF9 inh
CCC(=O)N1CC(=O)N2[C@H](CO)[C@H](c3ccc(-c4ccc(C#N)cc4)cc3)[C@H]2C1	-3.1
CC(C)C1C(=O)N(Cc2cn(CCC3OCCCO3)nn2)CCS(=O)(=O)N1Cc1ccc(-c2cccc(N(C)C)c2)cc1 (stereo not given)	2.3
COc1ccc(CNC(=O)C[C@@H]2C[C@H]3c4cc(NC(=O)C5CCC5)ccc4O[C@H]3[C@H](CO)O2)cc1	-15
CC(=O)N(C)C[C@H]1Oc2cc(-c3ccc(C)cc3)ccc2S(=O)(=O)N([C@H](C)CO)C[C@@H]1C	-1.0

Next part.
SMILES	AF4-AF9 inh
COc1ccc(-c2cc(NC=O)c3ncc(-c4cccc(C(=O)NCCN(C)C)c4)n3c2)cc1	26*
CCCc1cn(CC[C@@H]2CC[C@@H](NS(=O)(=O)c3ccc(-c4ccccc4)cc3)[C@@H](CO)O2)nn1	-1.0
O=c1cc(-c2ccccc2)oc2cc(O)c(O)c(O)c12	-18
C[C@@H]1CCCCO[C@@H](CN(C)C)[C@H](C)CN([C@H](C)CO)C(=O)c2cc(NC(=O)Nc3ccc4c(c3)OCO4)ccc2O1	14
C[C@@H]1CN([C@@H](C)CO)C(=O)c2cccc(N(C)C)c2O[C@@H]1CN(C)CC1CC1	-1.6
C[C@H]1CCCCO[C@H](CN(C)C(=O)c2ccccc2)[C@@H](C)CN([C@@H](C)CO)C(=O)c2cc(NS(C)(=O)=O)ccc2O1	-5.9
CN(C)CC#Cc1ccc([C@H]2[C@@H](CO)N3CCCCN(S(=O)(=O)c4ccccc4)C[C@H]23)cc1	3.1
C[C@H]1CN([C@@H](C)CO)C(=O)CCCn2nncc2CO[C@H]1CN(C)S(=O)(=O)c1cccs1	-1.5&-0.2
CCCC(=O)N1CC2(CN(Cc3cccnc3)C2)c2c([nH]c3cc(OC)ccc23)[C@@H]1CO	-1.6
CCOC(=O)CN(c1sc(C)c(C)c1C(=O)OCC)S(=O)(=O)c1ccc(C)cc1	-7.1
C[C@@H](NC(=O)C[C@H]1C=C[C@H](NC(=O)CN2CCOCC2)[C@H](CO)O1)c1ccccc1	0.0

Some of the entries so far, as labelled records:
> CCCNC(=O)C[C@H]1C[C@H]2c3cc(NS(=O)(=O)c4cccc(OC)c4)ccc3O[C@H]2[C@H](CO)O1
  AF4-AF9 inh: -2.2

> CO[C@H]1CN(C)C(=O)c2cc(NS(=O)(=O)c3cccc(F)c3)ccc2OC[C@@H](C)NC[C@@H]1C
  AF4-AF9 inh: -11

> CCCNC(=O)c1cc(C2CCCN(S(=O)(=O)c3ccccc3)C2)on1 (stereo not given)
  AF4-AF9 inh: 1.8

> Cc1ccc(S(=O)(=O)N[C@H]2CC[C@H](CCNC(=O)C3CCC3)O[C@H]2CO)cc1
  AF4-AF9 inh: -1.7
